Screening data deposited in PubChem by ICCB-Longwood Screening Facility, Harvard Medical School.
Vaccinia pol inh: blocks vaccinia virus processive DNA synthesis; in vitro processive DNA synthesis, absorbance read-out; active compounds read low; some inactives read as strong as hits; normalized absorbance, % (concentration not given with the values); 46,000 compounds, 0.94% hits; AID 493162;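 active means replicate mean up to 90% and picked by the depositor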;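 further: 100% = median of the test wells of a plate; 100 nL library stock went into each well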
An asterisk follows results filed as active.

SMILES | Vaccinia pol inh
Nc1nc(CNS(=O)(=O)c2ccccc2)nn1S(=O)(=O)c1ccccc1 | 96
CCS(=O)(=O)N1CCN=C1SCc1ccc(C)cc1 | 101
CC1(C)CC2(CCO1)OC(=O)CC2C(=O)NCc1ccccc1 (stereo not given) | 99
N#Cc1ccc(S(=O)(=O)N2CCc3sccc3C2c2ccc(OC(F)(F)F)cc2)cc1 (stereo not given) | 100
O=C(O)CCC(=O)N1N=C(c2ccccc2)CC1c1ccccc1F (stereo not given) | 100
O=C(O)c1cc(-c2ccc(F)cc2)on1 | 99
Cc1cc(/N=C/c2cc(C)n(Cc3ccccc3)c2C)n(CCC#N)n1 | 83
NC(=O)N1CCC(=O)Nc2ccccc21 | 100
CCCS(=O)(=O)c1cnc(C2COc3ccccc3O2)nc1N (stereo not given) | 99
OC(c1cccc(Cl)c1)(c1cccc(Cl)c1)C1CN2CCC1CC2 (stereo not given) | 100
Cc1nn(-c2ccccc2)c(N)c1-c1ccc(Cl)cc1 | 104
FC(F)(F)Oc1ccc(Nc2n[nH]c(=S)s2)cc1 | 97
COC(=O)c1sccc1OCc1cccc(C(F)(F)F)c1 | 76
CCn1cc(/C=C(\NC(=O)c2ccccc2Cl)C(=O)N2CCc3ccccc32)c2ccccc21 | 100
Cc1ccc(N2C(=O)c3oc4cc(C)c(C)cc4c(=O)c3C2c2ccc(O)cc2)nc1 (stereo not given) | 100
COCc1cc(=O)n2c([nH]c3ccccc32)c1C#N | 100
COc1cccc(NC(=O)CSc2ncnc3c2oc2ccccc23)c1 | 100
O=C(CCn1c(=O)oc2ccccc21)NCCC1=CCCCC1 | 100
CCNc1nc(F)cc(=O)[nH]1 | 101
CC1CC(C)CN(Cc2nc3c(c(=O)n(C)c(=O)n3C)n2CC(N)=O)C1 (stereo not given) | 100
CN(C)c1oc(-c2ccccc2)nc1C#N | 88
O=C(Cn1c2c(c(-c3ccccc3)cc1=O)CCCC2)N1CCCC1 | 104
CC(=O)N(c1ccccc1)C1(C(=O)NC2CCCC2)CCCCC1 | 90
C[N+]12CCCCC1C(COc1ccccc1Br)CCC2 (stereo not given) | 97
OCCN1CCN(C2=Cc3ccccc3C2)CC1 | 104
CCC(C)Cn1c(CO)nc2ccccc21 (stereo not given) | 84
O=C(c1ccc2c(c1)OCCO2)c1ccccc1Cl | 100
CSc1ccc(-c2nc3ncccn3c2Nc2ccccc2)cc1 | 103
CCOc1ccc(C(=O)OCCC2CCCN3CCCCC23)cc1 (stereo not given) | 90
COc1ccc(NC(=O)Cn2c(=O)n(-c3ccccc3)c(=O)c3c4c(sc32)CCCC4)cc1OC | 97
Cc1cc(C)c2[nH]c(C)c(CN(C)C3CCCCC3)c(=O)c2c1 | 100
CC(C)c1ccccc1NC(=O)COC(=O)c1ccc(N)cc1 | 110
O=C(CC1Sc2ccc(C(F)(F)F)cc2NC1=O)NC1CCCCC1 (stereo not given) | 98
N#CCNC(=O)Cc1ccccc1 | 88
Cc1ccc(C)c(N2C(=O)CC3CS(=O)(=O)CC32)c1 (stereo not given) | 100
COc1ccc(N=C2c3ccccc3-c3nc4ccccc4nc32)cc1 | 101
CSc1ccccc1NC(=S)Nc1cccnc1 | 105
O=C(O)c1ccc(N2CCCC2=O)cc1 | 94
Cc1[nH]c2ccccc2c1C(=O)Cn1nnc(-c2cccc(C(F)(F)F)c2)n1 | 103
CCCC1=C(C(=O)OCC)C(c2cc(Br)c(O)c(OC)c2)NC(=O)N1 (stereo not given) | 100
O=C1c2ccccc2S(=O)(=O)N1C(=O)c1cc(F)c(F)c(F)c1F | 109
CCNC(=O)N(Cc1ccccc1)Cc1cccnc1 | 98
Cc1oc(N)c(S(=O)(=O)/C(C#N)=C/c2cc(Cl)cc(Cl)c2)c1C | 100
O=C(NC1CCCC1)C(Cc1ccccc1)n1cccc1 (stereo not given) | 104
CCc1nn(C(C)C(=O)N(C)Cc2ccccc2)c(=O)c2cc3occc3n12 (stereo not given) | 101
N#CCN1CCC(c2cc(-c3ccc(Cl)cc3Cl)n[nH]2)CC1 | 104
CC1=[N+](C)c2cc(C(F)(F)F)ccc2C1(C)C | 98
CC(C)Oc1ccc(-c2[nH]ncc2-c2ccc(F)cc2)c(O)c1 | 102
COC(=O)c1cnc(Oc2c(Cl)cc(N)cc2Cl)cc1C(F)(F)F | 102
Cc1nnsc1C(=O)NC(=O)Nc1cc(Cl)cc(Cl)c1 | 97
Next part
SMILES | Vaccinia pol inh
O=C(CCN1N=C(c2ccccc2)CCC1=O)NC1CCCC1 | 73
O=C(N/C(C(=O)N1CCOCC1)=C(\Sc1ccccn1)c1ccccc1)c1ccccc1 | 100
O=C1CC(Nc2ccc(N3CCOCC3)cc2)C(=O)N1 (stereo not given) | 72
O=C(Nc1ccccc1)c1nc[nH]c1C(=O)Nc1ccccc1 | 96
CCC12CN3CC(CC)(CN(C1)C3c1ccc(C(C)C)cc1)C2=O (stereo not given) | 100
COC(=O)C1=C(C)N(Cc2ccccc2)C(=O)NC1c1ccccc1F (stereo not given) | 100
CC1(C)C2CCC1(C)C(OCC[N+]1(C)CCOCC1)C2 (stereo not given) | 100
CCOC(=O)Cn1c2c(sc1=O)C(c1ccc(Cl)cc1)C1C3CCC(C3)C1S2 (stereo not given) | 99
COc1ccc(N=Cc2ccccc2Br)cn1 | 100
CC1C2CC(C(S(=O)(=O)N3CCOCC3)C2=O)C1(C)C (stereo not given) | 95
C=C(C)Cn1c(CNC(=O)c2cccs2)nc2ccccc21 | 100
CCCCCCCCCCCCCCCCCCOC[C@H](COP(=O)([O-])OCC[N+](C)(C)C)OC(C)=O | 101
Cc1[nH]n2c(=O)c3c(nc2c1-c1ccccc1)CCC3 | 97
CC1(C)CC(NC(=O)NC(=O)c2c(F)cccc2F)CC(C)(C)N1 | 93
Cc1nc2ccc(S(=O)(=O)NC(C(=O)N3CCn4c3nc3ccccc34)C(C)C)cc2s1 (stereo not given) | 100
CNC(=O)c1ccc(/C=C2/Oc3ccccc3N(Cc3cccc(C)c3)C2=O)cc1 | 83
Nc1nc2n(n1)C(c1ccc(Br)cc1)C=C(c1ccccc1)N2 (stereo not given) | 86
O=C(CCCCn1c(=O)[nH]c2ccsc2c1=O)N1CCCCC1 | 90
O=S(=O)(/C=C/c1ccccc1)N1CCN(Cc2ccccc2)CC1 | 100
CCC(=O)NC(=S)Nc1cc(-c2nc3ccccc3o2)ccc1OC | 100
Cc1nc2ccccn2c1-c1csc(Nc2ccc(Br)cc2Br)n1 | 100
CCCSc1ncc(Cl)c(C(=O)Nc2nc(C)c(C(=O)OCC(C)C)s2)n1 | 99
CCCc1cc(=O)[nH]c(SC/C=C/c2ccccc2)n1 | 100
O=C(CCSCc1cnn(-c2ccccc2)c1-n1cccc1)N1CCOCC1 | 109
Oc1c(C(O)(C(F)(F)F)C(F)(F)F)ccc2cccnc12 | 100
CCN(c1cccc(C)c1)S(=O)(=O)c1cc2[nH]c(=O)c(=O)[nH]c2cc1C | 94
NC(=Nc1ccccc1)NC(=O)c1nc(Cl)c(N)nc1N | 51*
COC(=O)Cn1c(=N)n(C)c2ccccc21 | 100
CCN1CCc2c(OCC(=O)NCc3ccco3)cccc2C1=O | 101
O=C1Cc2ccccc2C(=O)N1Cc1ccc2c(c1)OCO2 | 100
O=C1CSCC(=O)N1c1ccccc1 | 113
CN1CCN(C(=O)c2cc(-c3ccc(F)cc3)nc3ccccc23)CC1 | 85
CC(C)(C)c1ccc(C(=O)C(C#N)=C2SCCCS2)cc1 | 93
Cc1nc2c(C(=O)N3CCc4ccccc4C3)cnn2c(C)c1Cc1ccc(Cl)cc1 | 83
Oc1ccc(-c2nc(-c3ccccc3)c3ccccn23)cc1 | 101
COC(=O)C1CCN(C(=O)c2ccccc2)CC1 | 102
O=C(NC(Cc1ccccc1)c1nc2ccccc2[nH]1)c1ccccc1 (stereo not given) | 99
COc1ccc2[nH]c3c(OC)ncnc3c2c1 | 100
COC(=O)c1ccc2c(c1)sc(=NC(=O)CSC(C)=O)n2C | 100
CC(=O)N(CCC(c1ccccc1)c1ccco1)Cc1ccc(N(C)C)cc1 (stereo not given) | 100
CC(C)(C)C(=O)COC(=O)c1cccc(NC(=O)c2ccco2)c1 | 102
Cc1ccc(C)c(N2CCN(S(=O)(=O)c3ccc4c(c3)CCC(=O)N4)CC2)c1 | 98
Cc1n[nH]c(C)c1S(=O)(=O)N1CCc2ccccc2C1 | 104
CN(/N=C/c1ncc(C(F)(F)F)cc1Cl)C(=O)Nc1ccc(Cl)cc1 | 101
S=C(Nc1ccccc1)Nc1ccccc1-n1cccc1 | 107
Cc1nc2ccccc2n1CC(=O)OCC(=O)N1c2ccccc2CC1C (stereo not given) | 98
CC1(C)CC(NC(=O)/C=C/c2ccc(F)cc2)CC(C)(C)N1 | 89
CC(C)(CO)NC(=O)CSc1ccc(C(F)(F)F)cc1Cl | 99
CC(C)(C)c1ccc(OCCCn2c(=O)sc3ccccc32)cc1 | 108
CC(=O)Nc1sc(-c2ccccc2)nc1-c1ccccc1 | 94
(cont.)
SMILES | Vaccinia pol inh
Cc1nn(-c2ccccc2)nc1-c1nnc(-c2cccc3ccccc23)o1 | 102
Cc1ccc(NC(=O)CCn2nc(C)cc2C)c(C)c1 | 82
COc1ccc(Oc2ccc(C#N)cc2)cc1 | 95
Cc1ccc(C(=O)CSc2nnc3[nH]c(=O)cc(C)n23)cc1 | 101
Cc1csc(NC(=O)c2cccs2)n1 | 106
CC(NC(=O)C(c1ccccc1)c1ccccc1)C(=O)Nc1ccc(Br)cc1 (stereo not given) | 101
COc1ccc(CN(Cc2cccn2C)S(=O)(=O)c2ccccc2)cc1 | 103
Cc1c(C(=O)N2CCNCC2)oc2ccccc12 | 97
CC(C)Cc1nc2ccccc2[nH]1 | 101
O=C(Cn1ncc2ccc(Cl)cc21)NC1CCCC1 | 107
O=S(=O)(c1ccc(Cl)cc1)N1CCOCC1 | 100
Cc1nc(CSCc2ccc(Cl)cc2Cl)cs1 | 94
COC(=O)c1c(C(=O)OC)c2n(c1C)CCC2 | 100
CCc1ccccc1NC(=S)N1CCC(N(C)CCN2CCOCC2)CC1 | 98
O=C(O)CCCC(=O)Nc1ccccc1N1CCOCC1 | 105
O=C(O)C1CCN(c2nc3ncccc3nc2-c2ccccc2)CC1 | 98
Cc1cc(NC(=O)N2CCC(CN3CCC(C)CC3)CC2)ccc1Br | 107
COc1ccc(C2=NOC(C(=O)NC(C)C)C2)cc1 (stereo not given) | 100
c1ccc(CNc2nnc(-c3cccs3)c3ccccc23)cc1 | 101
CC(C)Cn1c(CCCNC(=O)C(C)(C)C)nc2ccccc21 | 101
CCC(Sc1nncn2c1cc1sccc12)C(=O)Nc1ccccc1C (stereo not given) | 81
CCc1ccc(NC(=O)c2cnc3sccn3c2=O)cc1 | 105
NC(=O)c1cc(S(=O)(=O)N2CCOCC2)ccc1F | 104
Cc1ccc(NC(=O)CC2(c3ccc(Br)cc3)C(=O)c3ccccc3C2=O)cc1 | 108
CC(=O)N1CCc2c(sc(NC(=O)C(C)C)c2C(N)=O)C1 | 119
S=c1ccc(-c2ccc(Cl)cc2)nn1-c1ccccc1 | 100
O=C(O)c1ccc(CNCc2ccccc2)s1 | 104
C=CCSc1n[nH]c(=O)[nH]c1=O | 100
COc1ccc(C2Nc3ccccc3C(=O)N2c2ccccc2)cc1 (stereo not given) | 101
COc1ccc(NC(=O)C(C)NC(=O)c2ccccc2NC(=O)c2ccco2)cc1 (stereo not given) | 106

Three of the compounds above, as a markdown table:
| canonical_smiles | Vaccinia pol inh |
| --- | --- |
| O=C(O)c1ccc(CNCc2ccccc2)s1 | 104 |
| C=CCSc1n[nH]c(=O)[nH]c1=O | 100 |
| COc1ccc(C2Nc3ccccc3C(=O)N2c2ccccc2)cc1 (stereo not given) | 101 |

Next part.
SMILES | Vaccinia pol inh
CC1(C)CN(c2ccc(Br)cc2Br)C1=O | 93
C=C(C)C1Cc2nc(N)nc(C)c2C1 (stereo not given) | 96
COc1cccc(C(=O)OCC(=O)c2ccccc2)c1OC | 103
CCOC(=O)C1CCN(CC(O)COCc2ccc(Cl)cc2)CC1 (stereo not given) | 101
CCCCc1ccc(NCc2nc(-c3ccc(C)cc3)no2)cc1 | 100
CCn1cc(C(=O)N2CCCCC2)c(=O)c2cc(S(=O)(=O)N3CCCC3)ccc21 | 92
Cc1ccc(S(=O)(=O)N2CCC(=O)c3ccccc32)cc1 | 100
CCCCC1CCC(C(=O)Oc2ccc(OCC)cc2)CC1 (stereo not given) | 100
O=C(Nc1cccc2ccccc12)OCCn1ncc2ccccc2c1=O | 94
COC(=O)CNc1c(F)c(F)nc(F)c1F | 108
COc1cc2c(cc1OC)C(COc1cccc(C(F)(F)F)c1)N(C(=O)c1ccco1)CC2 (stereo not given) | 103
Clc1ncc(CSCc2ccccc2)s1 | 96
O=C(NC1CCS(=O)(=O)C1)c1ccco1 (stereo not given) | 104
COc1ccc(N=Cc2cc3ccc(C)cc3nc2Cl)cc1 | 104

Of the compounds above, 18 contain an NH in an aromatic ring:
SMILES | Vaccinia pol inh
FC(F)(F)Oc1ccc(Nc2n[nH]c(=S)s2)cc1 | 97
COCc1cc(=O)n2c([nH]c3ccccc32)c1C#N | 100
CCNc1nc(F)cc(=O)[nH]1 | 101
Cc1cc(C)c2[nH]c(C)c(CN(C)C3CCCCC3)c(=O)c2c1 | 100
Cc1[nH]c2ccccc2c1C(=O)Cn1nnc(-c2cccc(C(F)(F)F)c2)n1 | 103
N#CCN1CCC(c2cc(-c3ccc(Cl)cc3Cl)n[nH]2)CC1 | 104
CC(C)Oc1ccc(-c2[nH]ncc2-c2ccc(F)cc2)c(O)c1 | 102
O=C(Nc1ccccc1)c1nc[nH]c1C(=O)Nc1ccccc1 | 96
Cc1[nH]n2c(=O)c3c(nc2c1-c1ccccc1)CCC3 | 97
O=C(CCCCn1c(=O)[nH]c2ccsc2c1=O)N1CCCCC1 | 90
CCCc1cc(=O)[nH]c(SC/C=C/c2ccccc2)n1 | 100
CCN(c1cccc(C)c1)S(=O)(=O)c1cc2[nH]c(=O)c(=O)[nH]c2cc1C | 94
O=C(NC(Cc1ccccc1)c1nc2ccccc2[nH]1)c1ccccc1 (stereo not given) | 99
COc1ccc2[nH]c3c(OC)ncnc3c2c1 | 100
Cc1n[nH]c(C)c1S(=O)(=O)N1CCc2ccccc2C1 | 104
Cc1ccc(C(=O)CSc2nnc3[nH]c(=O)cc(C)n23)cc1 | 101
CC(C)Cc1nc2ccccc2[nH]1 | 101
C=CCSc1n[nH]c(=O)[nH]c1=O | 100

The list is partial; the hit share may differ from the screen's.
